Screening data as filed in PubChem BioAssay.
ClpP mod: qHTS Assay for Activators of ClpP; purified B. subtilis ClpP, FRET peptide cleavage, 20 min; ATP-dependent Clp protease proteolytic subunit (Bacillus subtilis (strain 168)), P80244; AID 651965, 2013; Potency, µM (top dose mostly 57.5 µM), inactives show at the highest dose activity change, negative = active; actives 1.9% (n = 340,000); active = well fitted falling curve with a large enough effect; inconclusive = small, poorly fitted or top-dose-only effect; inactive = no such curve, though single readings can be large or run the other way; note: the source files actives as falling curves though it sought activators and does not explain the sign; nearly all actives have a fitted effect of over 65% in size; many hits overshoot -100%
Target sequence (P80244 whole entry, looked up): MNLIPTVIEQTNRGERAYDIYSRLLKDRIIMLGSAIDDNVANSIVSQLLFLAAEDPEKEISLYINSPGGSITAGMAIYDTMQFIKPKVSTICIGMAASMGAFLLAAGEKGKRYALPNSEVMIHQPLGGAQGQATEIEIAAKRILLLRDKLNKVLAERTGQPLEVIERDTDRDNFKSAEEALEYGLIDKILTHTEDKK
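Buffer: 100 mM Tris/HCl pH8, 100 mM KCl, 0.05% low protease BSA, 2.5% glycerol, 0.01% Tween-20. ClpP 10 microg/mL final; 20 min RT; delta FRET normalized to ADEP and DMSO controls.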
The depositor's hits bear a star; ? = inconclusive. Potency is the fitted concentration of half-maximal effect. Some of the compounds tested (hit frequency here may not be typical).

SMILES	ClpP mod
O=C1CC(c2cccc(F)c2)c2c(n3ncnc3[nH]c2=O)N1 (centres undefined)	-0.6%
CCOc1ccc(NC(=O)CCc2nnc3n(C)c(=O)c4sccc4n23)cc1	-0.7%
Cc1ccc(-c2cn3c(n2)sc2cc(C(=O)NCCCN4CCCCC4)ccc23)cc1	?
O=C(CCC1N=C2c3ccccc3N=C(SCc3ccc(F)cc3)N2C1=O)NC1CCCCC1 (centres undefined)	-8.5%
CCCN(CCC)S(=O)(=O)c1ccc(C(=O)Nc2sc3c(c2C(=O)OC)CCN(CC)C3)cc1	-3.9%
CC1CCN(S(=O)(=O)c2csc(C(N)=O)c2)CC1	-2.7%
CCCN1C(=O)C(O)(CC(=O)c2ccc(C(C)C)cc2)c2ccccc21 (centres undefined)	-0.2%
CCc1ccc(NC(=O)CSc2nc(=O)n(Cc3ccncc3)c3c2CCC3)cc1	-1.6%
Cc1nc2cc(-c3ccccc3)nn2c(C)c1CCC(=O)NCc1cccc(Cl)c1	4.4%
Cn1ccc2cc(S(=O)(=O)N3CCN(C(=O)Nc4ccc(F)cc4F)CC3)ccc21	-1.5%
O=C(Cn1c(=O)oc2ccccc21)NCc1ccccc1Cl	-0.6%
O=c1c2ccccc2n2c(-c3ccc(F)c(F)c3)nnc2n1CCc1ccccc1	86%
CC(C)(C)c1ccc(OCC(=O)Nc2c(C(=O)c3ccc(F)cc3)oc3ccccc23)cc1	-11%
CCn1c(=O)cc(OCC(=O)N2CCN(c3ccc(OC)cc3)CC2)c2ccccc21	-5.4%
Cc1ccc(-c2noc(-c3nnn(CC(=O)Nc4ccc(C)cc4Cl)c3N)n2)cc1	-2.0%

A draw from above in order of molecular weight, highest first.
SMILES	ClpP mod
CCCN(CCC)S(=O)(=O)c1ccc(C(=O)Nc2sc3c(c2C(=O)OC)CCN(CC)C3)cc1	-3.9%
O=C(CCC1N=C2c3ccccc3N=C(SCc3ccc(F)cc3)N2C1=O)NC1CCCCC1 (centres undefined)	-8.5%
CC(C)(C)c1ccc(OCC(=O)Nc2c(C(=O)c3ccc(F)cc3)oc3ccccc23)cc1	-11%
Cn1ccc2cc(S(=O)(=O)N3CCN(C(=O)Nc4ccc(F)cc4F)CC3)ccc21	-1.5%
Cc1ccc(-c2cn3c(n2)sc2cc(C(=O)NCCCN4CCCCC4)ccc23)cc1	?
Cc1ccc(-c2noc(-c3nnn(CC(=O)Nc4ccc(C)cc4Cl)c3N)n2)cc1	-2.0%
CCn1c(=O)cc(OCC(=O)N2CCN(c3ccc(OC)cc3)CC2)c2ccccc21	-5.4%
Cc1nc2cc(-c3ccccc3)nn2c(C)c1CCC(=O)NCc1cccc(Cl)c1	4.4%
O=c1c2ccccc2n2c(-c3ccc(F)c(F)c3)nnc2n1CCc1ccccc1	86%
CCOc1ccc(NC(=O)CCc2nnc3n(C)c(=O)c4sccc4n23)cc1	-0.7%
CCCN1C(=O)C(O)(CC(=O)c2ccc(C(C)C)cc2)c2ccccc21 (centres undefined)	-0.2%
O=C(Cn1c(=O)oc2ccccc21)NCc1ccccc1Cl	-0.6%
O=C1CC(c2cccc(F)c2)c2c(n3ncnc3[nH]c2=O)N1 (centres undefined)	-0.6%
CC1CCN(S(=O)(=O)c2csc(C(N)=O)c2)CC1	-2.7%

Other results.
SMILES	ClpP mod
COc1cccc(NC(=O)c2ccc3c(=O)n4nc(Nc5ccccc5OC)sc4nc3c2)c1	-0.6%
Cc1cccc(NC(=O)CSc2nc(=O)n(Cc3ccncc3)c3c2CCC3)c1C	-12%
CCC(C)n1c(=O)c2sccc2n2c(CCCC(=O)NCc3ccccc3Cl)nnc12 (centres undefined)	-11%
Cc1ccc(S(=O)(=O)c2nc(-c3ccccc3)oc2N2CCCCCC2)cc1	-19%
CCOC(=O)c1scc(-c2ccccc2)c1S(=O)(=O)N1CCN(c2ccccc2OC)CC1	1.7%
COc1ccccc1-c1ccnc2[nH]n(-c3ccccc3)c(=O)c12	0.1%
O=C1O[C@@H](c2ccccc2)C[C@@H](O)[C@H](O)CCCCc2ccccc21	0.3%
CCc1nnc(NC(=O)CSc2nccn2Cc2ccccc2)s1	-0.9%
CNc1c(Cl)cc(/C=C2\C=Cc3ccccc32)cc1Cl	-2.2%
CCCn1c(=N)c(C(=O)NCc2ccco2)cc2c(=O)n3cc(C)ccc3nc21	4.0%
CCOC(=O)c1ccc(NC(=O)Cn2nc(C)c3nn(-c4ccc(Cl)cc4)c(C)c3c2=O)cc1	-5.5%
O=C(CC1N=C2c3ccccc3N=C(SCc3cccc(F)c3)N2C1=O)NCc1cccs1 (centres undefined)	-3.2%
O=C(NCCS(=O)(=O)N1CCN(c2ccc(F)cc2)CC1)c1cc(=O)c2ccccc2o1	0.0%
Cc1ccccc1NC(=O)Cn1c(=O)n(Cc2ccccc2)c(=O)c2sc3ccccc3c21	?
CCOC(=O)c1cc(NC(=O)c2ccc(Cl)cc2)c(=O)n2c1oc1ccccc12	-3.3%
c1ccc2nccnc2c1	-23%
Cc1ccc(-n2ncc(C(=O)NCc3ccco3)c2C2CCN(C(=O)OC(C)(C)C)CC2)cc1C	-0.9%
O=C(c1ccccc1Cl)N1CCCCC1CCN1CCCCC1 (centres undefined)	-1.8%
CCOC(=O)c1cc(S(=O)(=O)NCc2cccc(Cl)c2)[nH]n1	1.5%
Clc1cccc(CSc2nncn3c2cc2sccc23)c1	10.0%
Clc1cccc(Cc2c(C3CCCCC3)nc3c4ccccc4ccn23)c1	-11%
Cc1cccc(NC(c2ccccc2C)c2ccc3ccc(C)nc3c2O)n1 (centres undefined)	0.1%
COc1cc(-c2nnc(SCCOc3ccc(Cl)cc3)o2)cc(OC)c1OC	-8.5%
Cc1ccc(C(=O)O)cc1-n1c(C)ccc1-c1ccccc1	-2.6%
CCc1ccccc1NS(=O)(=O)c1ccc2oc(=O)c3ncn(C)c3c2c1	-1.4%
Cc1ccc(C)c(NC(=O)Cn2c(=O)nc(-c3ccccc3)c3ccccc32)c1	-14%
CC(C)C[C@@H]1CN(CCCC[C@H]2CNC(=O)C(=O)N2CCC2CCCCC2)C(=O)C(=O)N1CC1CCCCC1	0.9%
Cc1cc(Nc2ccc(Br)c(C)c2)n2nc(-c3ccco3)nc2n1	?
Cc1cccc(C2=Nc3ccccc3N=C(c3cc(Cl)ccc3O)C2)c1	-9.6%
CCc1ccc(NC(=O)Cn2cnc3sc(C)c(S(=O)(=O)N4CCC(C)CC4)c3c2=O)cc1	-2.5%
CC(C)c1ccc(S(=O)(=O)Nc2cc3c(cc2NCc2ccccc2)n(C)c(=O)n3C)cc1	3.8%
CC(C)(C)OC(=O)N1CCC(c2c(C(=O)NCCN3CCc4ccccc4C3)cnn2-c2ccc(F)cc2F)CC1	-4.1%
Cc1ccc(CNC(=O)Cn2ccn(-c3cc(C)cc(C)c3)c(=O)c2=O)cc1	4.4%
Cc1cccc(NC(=O)CSc2nc3ccc(NC(=O)COc4ccc(Cl)cc4)cc3s2)c1	-5.9%
COc1cccc(CNC(=O)c2ccc(NC(=O)N3CCCCc4ccccc43)cc2)c1OC	4.1%
Cc1cc(C)n2c(NC3CCCCC3)c(CC(C)C)nc2n1	-9.2%
COc1ccc(CCNC(=O)c2cc(-c3ccc(C)c(C)c3)nc3ccccc23)cc1OC	6.4%
CCOc1ccc(-c2n[nH]c3c2C(c2cccs2)N(c2ccc(Br)cc2)C3=O)cc1 (centres undefined)	-4.8%
COC(=O)[C@]1(Sc2ccccc2)CC(=O)N[C@@H]1c1ccccc1	-2.5%
COc1ccccc1C1C(C(=O)N2CCCCC2)=C(C)Nc2nc3ccccc3n21 (centres undefined)	-17%
Cc1cc(Br)ccc1NC(=O)c1coc(=O)c2ccccc12	-3.3%
COc1cccc(-n2ccnc2SCC(=O)Nc2c(C)cc(C)cc2C)c1	-2.3%
Cn1cccc1-c1cc2n(n1)CCC(=O)N2CCCC(=O)NCc1cccc(Cl)c1	-1.8%
CCOC(=O)c1c(NC(=O)COc2cccc(C(F)(F)F)c2)sc2c1CCC(C)C2 (centres undefined)	-1.8%
COC(=O)c1ccc(NC(=O)CSc2nccn2Cc2ccc(Cl)cc2)cc1	0.2%
COc1ccc(NC(=O)C2CCN(C3=NS(=O)(=O)C(c4ccc(C)c(C)c4)=C3C)CC2)cc1OC	0.2%
CCCCOc1ccc(C(=O)N2CCC(c3nc4ccccc4o3)CC2)cc1	1.4%
Cc1ccc2nc(COc3ccccc3NC(=O)c3ccc(F)cc3)cc(=O)n2c1	?
COc1cc2c(NC3CCN(C)CC3)nc(N3CCCN(C)CC3)nc2cc1O	3.8%
Cc1ccc2c(NCc3ccco3)nc(NC(C)C)nc2c1	4.8%
COc1cccc(C(=O)Nc2ccccc2C(=O)OCc2cc(=O)n3nc(C)sc3n2)c1	-6.7%
Cc1ccc2oc(-c3cccc(NC(=O)c4sc5c([N+](=O)[O-])cccc5c4Cl)c3)nc2c1	-1.1%
Nc1c(C(=O)Nc2ccc(Cl)cc2F)sc2nc(-c3cccs3)ccc12	-18%
O=C(c1cnn(-c2ccc(F)cc2)c1-n1cccc1)N1CCN(c2ccccc2)CC1	-0.8%
Cc1ccc(-c2nnc(Nc3ccccc3)c3ccccc23)cc1S(=O)(=O)NCc1nc2ccccc2[nH]1	-15%
Nc1nc2ccccc2cc1C(=O)NCc1ccc(-c2ccccc2)cc1	?
O=C(Cn1c(=O)n(-c2cccc(Cl)c2)c(=O)c2sc3ccccc3c21)NC1CCCCC1	?
CCc1cccc(C)c1NC(=O)CCCn1c(C)c2cnn(-c3ccccc3)c(=O)c2c1C	-2.1%
Cc1ccc(NC(=O)c2sc3ccccc3c2Cl)cc1	44%
CN(C)CCNC(=O)c1ccc(Cn2c(=O)c3cccn3c3cccnc32)cc1	4.4%

Given comma-delimited: entries from further up
SMILES,ClpP mod
COc1ccc(NC(=O)C2CCN(C3=NS(=O)(=O)C(c4ccc(C)c(C)c4)=C3C)CC2)cc1OC,0.2%
CCCCOc1ccc(C(=O)N2CCC(c3nc4ccccc4o3)CC2)cc1,1.4%

Carrying on:
SMILES	ClpP mod
COc1cc(OC)cc(-c2cc3nc(C)c(CCC(=O)Nc4ccc(C(C)=O)cc4)c(C)n3n2)c1	-5.1%
O=C(CCC1N=C2c3ccccc3N=C(SCC(=O)Nc3ccccc3F)N2C1=O)NCc1ccccc1 (centres undefined)	?
COc1ccc(CNC(=O)c2cnn(-c3ccc(C)cc3)c2-n2cccc2)cc1OC	-0.8%
COc1ccc(Br)cc1S(=O)(=O)Nc1cc(-c2cn3ccccc3n2)ccc1C	18µM*
O=C(CCCn1c(=O)c2cccn2c2ccc(F)cc21)NCCc1ccccc1	-16%
CCCCn1cc(S(=O)(=O)c2ccc(C)c(C)c2)c(=O)c2cc(F)c(N3CCCC(C)C3)cc21 (centres undefined)	?
CCCS(=O)(=O)Nc1cc2c(cc1NCc1ccccc1)n(C)c(=O)n2C	4.2%
Cc1nn(-c2ccccc2)c2c1cc1c(=O)[nH]c(=O)nc-1n2-c1cccc(Cl)c1	3.6%
S=c1[nH]c(=S)c2[nH]cnc2[nH]1	0.2%
CCOc1ccc(Nc2c(S(=O)(=O)c3ccc(C)cc3)cnc3ccccc23)cc1	-2.0%
CCCCN(CC)C(=O)c1c[nH]c2ccc(S(=O)(=O)Nc3cccc(OC)c3)cc2c1=O	?
CCOC(=O)c1c(NC(=O)CSc2nc(-c3ccccc3)cc(C(F)(F)F)n2)sc(C)c1C	-1.3%
CCc1ccc(NC(=O)CSc2nc3ncccc3[nH]2)cc1	-3.3%
COCCCNC(=O)CSC1=Nc2ccccc2C2=NC(CCC(=O)NCc3ccccc3OC)C(=O)N12 (centres undefined)	-19%
Cc1cc(C)c2c(=O)c3c(oc2c1)C(=O)N(CCCOC(C)C)C3c1ccccc1F (centres undefined)	1.0%
O=C(CN1CCN(Cc2ccccc2Cl)C1=O)NCc1ccccc1Cl	0.4%
CCCCNC(=O)c1nn(-c2ccc(C)cc2)c(=O)n(C)c1=O	1.0%
CC(C)c1ccc2oc(-c3ccc(Cl)c(NC(=O)c4cccs4)c3)nc2c1	4.0%
CCOc1ccc(C2c3[nH]c4ccccc4c3CCN2C(=O)Cc2cccc(OCC)c2OCC)cc1 (centres undefined)	-6.4%
COc1ccc(S(=O)(=O)NCc2ccc3c(c2)CCN3C(=O)c2ccccc2)cc1OC	-1.8%
COc1ccccc1CNc1ncnc2c1cnn2-c1ccc(C)cc1	3.9%
CCc1cccc(C)c1NC(=O)CCS(=O)(=O)c1ccc2c(c1)oc(=O)n2C	-0.7%
O=C(Nc1ccc(F)cc1)C(c1cc2ccccc2o1)N1CCN(C(=O)c2ccco2)CC1 (centres undefined)	-5.3%
CCn1cc(C(=O)OCC(=O)Nc2cc(Cl)ccc2OC)c(=O)c2ccc(C)nc21	-2.1%
CC(=O)N1CCCc2cc(S(=O)(=O)N3CCCC(C(=O)Nc4cccc(Cl)c4C)C3)ccc21 (centres undefined)	2.1%
COC(=O)c1cc(-c2ccc(C)cc2)c2c(=O)n(C)c(=O)n(C)c2n1	?
O=C(Nc1nc2c(Cl)cccc2s1)c1ccc(S(=O)(=O)N2CCc3ccccc32)cc1	-6.9%
CCN(CCCNC(=O)CSc1cc(=O)n(CC)c2ccccc12)c1cccc(C)c1	-4.5%
CC(C)c1ccc(CNc2n[nH]c(-c3ccco3)n2)cc1	-6.7%
Cc1ccccc1CNC(=O)c1oc2c(c1C)-c1nn(Cc3ccc(Cl)cc3)cc1CC2	?
COc1cc2c(cc1OC)C(c1ccc(F)cc1)N(c1ccccc1)C(=O)C2 (centres undefined)	-4.9%
O=C(OCC1CCCO1)c1ccc2c(c1)N(Cc1ccc(F)cc1)C(=O)c1ccccc1S2(=O)=O (centres undefined)	-0.5%
Fc1ccc(-c2csc(-c3nc(-c4ccc(Br)s4)cs3)n2)cc1	-3.1%
COc1ccc(Nc2ncnc3c2nc2n3CCCCC2)cc1	0.4%
COC(=O)[C@@]12C[C@@H](CC(=O)NCC3CCCCC3)C(=O)N(Cc3ccc4c(c3)OCO4)C1=CCC(C)(C)C2	0.2%
COc1ccc(N2CCN(S(=O)(=O)c3ccc(F)c(C(=O)Nc4ccccc4Cl)c3)CC2)cc1	-0.9%
